CBX7 AlphaScr = blocks human CBX7 binding to H3K27me3 peptide | normalised signal (fraction of DMSO) (concentration not given with the values) | 66,000 tested, 1.1% active | O95931 | AlphaScreen His6-CBX7 / biotin-H3K27me3 peptide binding; active compounds read low; in the data active = normalised signal below about 0.5;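 note: 100 nL library stock added to about 20 µL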
Target sequence (O95931 whole entry, looked up): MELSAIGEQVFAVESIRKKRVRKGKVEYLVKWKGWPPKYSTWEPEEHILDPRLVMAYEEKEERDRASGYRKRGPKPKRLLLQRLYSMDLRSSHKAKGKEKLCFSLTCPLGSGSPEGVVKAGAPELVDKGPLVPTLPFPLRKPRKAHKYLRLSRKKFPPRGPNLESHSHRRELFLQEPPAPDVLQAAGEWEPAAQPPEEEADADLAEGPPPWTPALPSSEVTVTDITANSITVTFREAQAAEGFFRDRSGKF
CBX7 AlphaScr z-score = further read-out of CBX7 AlphaScr, marked with its call; z-score; measured here: z-score of CBX7 signal; some inactives read as strong as hits; reference of the scale not given here;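 same signal on another scale; lower means less binding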
* marks the source's active call; other numbers are inactive results; & = joins results of further samples. Not all compounds are listed (hit frequency here may not be typical).

The line under a structure holds: CBX7 AlphaScr, CBX7 AlphaScr z-score
Cc1ccc(-c2n[nH]c(=O)c3ccccc23)cc1S(=O)(=O)N1CCC(C)CC1
    1.08, 0.683
CC(NS(=O)(=O)c1ccc(F)cc1)C(c1cccs1)N1CCN(c2ccccc2F)CC1 (stereo not drawn)
    0.939, -1.48
O=C(Nc1ccc2oc(-c3ccccc3)nc2c1)c1ccc(Cl)cc1
    0.861, -0.561
CC(C)N1C(=O)CCC1C(=O)NCc1cccs1 (stereo not drawn)
    0.976, -0.612
COc1cccc(-c2nc3sc4c(c3c(=O)n2CC(=O)NCCc2ccc(OC)c(OC)c2)CCCC4)c1
    0.974, -0.558
COc1cc(-c2nnc3n2C(C)(C)Cc2ccccc2-3)cc(OC)c1OC
    1.06, 1.33
COc1ccccc1NC(CNS(=O)(=O)c1ccccc1)c1ccccc1 (stereo not drawn)
    0.47*, -7.68*
Cc1ccc(CNC(=O)c2nc3c(nnn3CC3CCCO3)c(=O)[nH]2)cc1 (stereo not drawn)
    0.966, -0.772
Cc1nc(Nc2nc3ccccc3o2)nc(C)c1C
    0.869, -1.65
CC1(C)Cc2c(C#N)c(SCCc3ccccc3)nc(N3CCOCC3)c2CO1
    1.1, 2.43
COc1cc2c(cc1OC)C(C(=O)N1CCN(C)CC1)C(c1ccccc1F)N(C)C2=O (stereo not drawn)
    1.01, 0.0818
COc1ccc(-c2cc3nc(C)c(CCC(=O)NCc4ccc(C)cc4)c(C)n3n2)c(OC)c1
    1.06, 0.773
C=C(C)Cn1c(C2CC(=O)N(c3c(C)cc(C)cc3C)C2)nc2ccccc21 (stereo not drawn)
    1.01, 0.0445
Cc1c(C(=O)N2CCN(c3ccccc3)CC2)sc2ncnc(N3CCN(c4ccccc4)CC3)c12
    1.05, 0.693
Cc1ccc(-n2c(Cc3cccn3C)nnc2SCC(=O)Nc2nc3ccccc3s2)cc1
    1.01, 0.288
COc1ccc(-c2cn3c(C)c(C(=O)NCc4ccccn4)sc3n2)cc1
    0.883, -2.24
CCCc1ccc(-c2ccc(C(=O)Nc3nc4ccccc4s3)cc2)nc1
    1.07, 1.12
CCN1C(=O)c2ccccc2S(=O)(=O)c2ccc(C(=O)NCCCN3CCOCC3)cc21
    1.06, 1.65
O=C(NCCN1CCCCCC1)c1ccc2c(c1)N(Cc1c(F)cccc1Cl)C(=O)CS2
    1, 0.00307
Cc1ccc(CNC(=O)c2c(-c3c(Cl)cccc3Cl)noc2C)cc1
    1.08, 2.02
COc1ccc(CCNC(=O)CCCNC(=O)Cn2cnc3sc(C)c(C)c3c2=O)cc1OC
    1.03, 0.66
CCCOc1ccc(-c2nc(N3CCCCCC3)c3ccccc3n2)cc1
    1.14, 0.161
Cc1ccc(-c2nc(N3CCN(C)CC3)c3ccccc3n2)cc1
    1.03, 1.47
CCOc1ccc(Nc2cc(C(=O)NCc3ccccc3Cl)c3ccccc3n2)cc1
    1.02, 0.39
Cc1cc(OCc2ccccc2)nc(N2CCOCC2)n1
    1.15, 1.57
COc1cccc(-c2nc(CS(=O)(=O)CC(=O)NCc3cccnc3)c(C)o2)c1
    0.998, -0.0481
CCC(C)NC(=O)C1(C)CCC(=O)N1CCc1ccc(C)cc1 (stereo not drawn)
    1.05, 1.63
COc1ccc(Cl)cc1C(=O)Nc1c2c(nn1-c1ccc(Cl)cc1)CSC2
    1.12, 1.93
Cc1ccc2cc(C)c(Nc3ccc(Cl)cc3)nc2c1
    1.45, 2.82
CC(C)NC(=O)c1cc(-c2ccccn2)nc2ccc(S(=O)(=O)N3CCOCC3)cc12
    0.925, -2.26
COc1ccc(NC(=O)c2onc(C)c2Cl)cc1
    1.04, 1.49
COc1ccccc1CNC(=O)Nc1ccc2c(c1)N(C)C(=O)CS2
    1, -0.014
CC1=Nc2cc(C(=O)N3CCC(Cc4ccccc4)CC3)ccc2Sc2ccccc21
    1.05, 0.811
COc1ccc(NC(=O)Cn2cnc3scc(-c4ccccc4)c3c2=O)cc1Cl
    0.971, -0.783
Cc1ccc(CNC(=O)c2ccc3c(c2)N(Cc2ccc(F)cc2)CCS3)cc1
    0.886, -3.07
Cc1ccc2nc(-c3cccc(S(=O)(=O)N(C)C)c3)cn2c1
    0.968, -1.15
CCc1ccccc1N(C)C(=O)Cn1ncc2c1-c1ccccc1OC2
    0.823, -5.1
CC(C)c1cc(C(=O)Nc2cccc(Cl)c2)no1
    0.843, -1.61
Clc1ccc(Nc2nc3nonc3nc2N2CCCCC2)cc1
    1.02, 0.41
Cc1ccc(NC(=O)C2CCCN(S(=O)(=O)c3cccnc3)C2)cc1C (stereo not drawn)
    1.01, 0.00586

Gathered by group: the compounds so far with four or more nitrogen atoms.
The line under a structure holds: CBX7 AlphaScr, CBX7 AlphaScr z-score
Cc1ccc(CNC(=O)c2nc3c(nnn3CC3CCCO3)c(=O)[nH]2)cc1 (stereo not drawn)
    0.966, -0.772
Cc1nc(Nc2nc3ccccc3o2)nc(C)c1C
    0.869, -1.65
COc1ccc(-c2cc3nc(C)c(CCC(=O)NCc4ccc(C)cc4)c(C)n3n2)c(OC)c1
    1.06, 0.773
Cc1c(C(=O)N2CCN(c3ccccc3)CC2)sc2ncnc(N3CCN(c4ccccc4)CC3)c12
    1.05, 0.693
Cc1ccc(-n2c(Cc3cccn3C)nnc2SCC(=O)Nc2nc3ccccc3s2)cc1
    1.01, 0.288
COc1ccc(-c2cn3c(C)c(C(=O)NCc4ccccn4)sc3n2)cc1
    0.883, -2.24
COc1ccc(CCNC(=O)CCCNC(=O)Cn2cnc3sc(C)c(C)c3c2=O)cc1OC
    1.03, 0.66
Cc1ccc(-c2nc(N3CCN(C)CC3)c3ccccc3n2)cc1
    1.03, 1.47
CC(C)NC(=O)c1cc(-c2ccccn2)nc2ccc(S(=O)(=O)N3CCOCC3)cc12
    0.925, -2.26
Clc1ccc(Nc2nc3nonc3nc2N2CCCCC2)cc1
    1.02, 0.41

(listing goes on)
The line under a structure holds: CBX7 AlphaScr, CBX7 AlphaScr z-score
Fc1ccccc1N1CCN(Cc2nc(-c3ccccc3)no2)CC1
    1.33, 3.77
COc1ccc(N2CCC(CNC(=O)Nc3ccc(OC)cc3OC)C2)cc1 (stereo not drawn)
    0.87, -5.26
Cc1nnnn1-c1nc(-c2cccs2)cc(C(F)(F)F)n1
    1.07, 2.13
CC1CCCC(NC(=O)C2c3ccccc3C(=O)N2CCc2ccccc2)C1C (stereo not drawn)
    1.12, 1.57
Cc1ccc(OCC(=O)Nc2cccc(Cl)c2C)cc1C
    1.03, 1.42
Cc1nc2ccccc2nc1SCC(=O)N1CCOCC1
    0.874, -3.15
CCOc1ccccc1Nc1nc(-c2ccccc2Cl)nc2ccccc12
    1.5, 15.1
COc1cccc(-c2cc(C(=O)N3CCOCC3)no2)c1
    0.917, -0.948
N#CCn1c(-c2nonc2N)nc2ccccc21
    1.14, 2.4
CCCN(C(=O)Cc1nc(N)n[nH]1)C1(C(=O)Nc2ccccc2C)CCCCC1
    0.512, -7.08
CCCN1CCN(C(=O)c2ccc3nc(N4CCOCC4)sc3c2)CC1
    1.01, 0.0345
O=C(COc1ccc(Cl)cc1)Nc1ncc(Cc2cccc(C(F)(F)F)c2)s1
    1.07, 1.14
COC(=O)Cn1cnc2c(nnn2Cc2ccc(F)cc2)c1=O
    1.05, 0.993
CCC1Oc2ccc(Cl)cc2N(CC(=O)NCCc2ccc(OC)c(OC)c2)C1=O (stereo not drawn)
    1.35, 0.708
Cc1ccc2nc(NC3=NC(CC(=O)O)C(=O)N3)nc(C)c2c1 (stereo not drawn)
    1.08, 2.33
CCN(CCCNC(=O)c1n[nH]c(=O)c2ccccc12)Cc1ccccc1
    1.03, 0.0933
CCc1ccc(C2CC(c3ccccc3Cl)n3ncnc3N2)cc1 (stereo not drawn)
    0.963, -1.29
N#Cc1c(-c2ccccc2)nc(N2CCOCC2)[nH]c1=O
    0.925&1.04, -0.802&1.33
CC(=O)N1CCc2cc(S(=O)(=O)NCc3cccnc3)ccc21
    1.28, 2.94
COc1ccc(C2CC(=O)NC3=C2C(=O)CC(C)(C)C3)cc1Br (stereo not drawn)
    1.15, 0.955
COc1ccc(C2CC(=O)N(CC(=O)Nc3cccc(Cl)c3)c3ccccc3S2)cc1OC (stereo not drawn)
    0.822, -2.52
COc1ccc(-n2nc3c(c2NC(=O)CCc2ccccc2)CSC3)cc1
    0.971, -1.43
C=C(C)Cn1c(C(C)NC(=O)c2ccccc2OC)nc2ccccc21 (stereo not drawn)
    1.08, 1.12
COc1cc2c(C(=O)N3CCN(c4ccc(F)cc4)CC3)cn(C)c(=O)c2cc1OC
    1.13, 1.82
Cc1ccccc1-c1nc(CN2CCCC(C(=O)NCc3ccc(Cl)cc3)C2)c(C)o1 (stereo not drawn)
    1.03, 0.726
CCc1ccc2c(c1)c(=O)c(S(=O)(=O)c1ccc(C)cc1)cn2CC(=O)Nc1ccc(F)cc1
    0.935, -0.941
CCCCCC(=O)Nc1ccc(-c2nc3cc(Cl)ccc3o2)cc1
    1.07, 0.685
O=C(NCC1COc2ccccc2O1)c1cc(-c2ccncc2)nc2ccccc12 (stereo not drawn)
    0.715, -3.21
COc1cc(OC)c(NC(=O)Nc2cccs2)cc1Cl
    0.888, -5.07
Cc1ccc(Cn2nnc3c(=O)n(CC(=O)N4CCN(c5ccccc5)CC4)cnc32)cc1
    0.84, -2.63
Cc1ccc(N2C(=O)CC(NCCc3ccccc3)C2=O)cc1 (stereo not drawn)
    1.24, 2.01
O=C(CN1C(=O)COc2ccc(S(=O)(=O)N3CCCC3)cc21)NC1CCCCCC1
    1.12, 1.53
O=C(CC1Sc2ccc(C(F)(F)F)cc2NC1=O)Nc1ccc(F)cc1 (stereo not drawn)
    1.02, 0.533
N#Cc1nc(COc2ccc(F)cc2)oc1N1CCC(C(N)=O)CC1
    0.986, -0.263
O=C(NCCCc1ccccc1)C1=CCN(S(=O)(=O)c2ccc(Br)cc2)CC1
    1.03, 1.34
O=C(NCc1ccccn1)C1CCN(S(=O)(=O)c2cnc[nH]2)CC1
    0.926, -1.2
c1ccc(-c2nnc3sc(-c4cc5ccccc5o4)nn23)cc1
    1.04, 1.58
Cc1cccc2c(C(=O)NCCOc3ccccc3)cc(-c3ccccc3)nc12
    1, 0.0123
CCOC(=O)c1cc(-c2ccccc2)n(-c2cccc(C(=O)NC3CCCCC3)c2)c1C
    0.971, -0.311
COc1ccc(C(=O)CCN2CCC(c3ccccc3)C2)cc1OC (stereo not drawn)
    1.05, 1.4
Cc1c(C(=O)NCCc2ccc(Cl)cc2)oc2ccc(S(=O)(=O)N3CCCC(C)C3)cc12 (stereo not drawn)
    0.993, -0.058
CCNc1ccc(Br)cc1-c1nc2ccccc2[nH]c1=O
    1.14, 1.48
COc1cccc(CNC(=O)CCNS(=O)(=O)c2ccc3c(c2)CCC(=O)N3)c1
    1.05, 0.954
O=C(c1ccc(CNc2c(N3CCCCC3)c(=O)c2=O)cc1)N1CCC(Cc2ccccc2)CC1
    0.906, -0.216
Cc1ccc(NC(=O)CCNS(=O)(=O)c2ccc3c(c2)CCC(=O)N3)cc1C
    1.02, 0.599
O=C(O)c1c[nH]c2ccc(S(=O)(=O)N3CCC4(CC3)OCCO4)cc2c1=O
    0.992, -0.223
COCCNC(=O)c1cccc(NC2=NC3CS(=O)(=O)CC3S2)c1 (stereo not drawn)
    1.05, 1.3
O=C(CCc1nc2ccccc2n(Cc2c(F)cccc2Cl)c1=O)NCc1ccccc1
    0.959, -0.405
O=C(Nc1ccc(F)cc1Cl)c1cn(-c2ccc(F)cc2F)c(=O)c2ccccc12
    0.989, -0.145
CCOc1ccc(-c2n[nH]c(C)c2Oc2ccccc2)c(O)c1
    0.713, -1.35
COc1cccc(OC)c1C(=O)Nc1cccc(Oc2ccc3c(c2)C(=O)N(c2ccccc2)C3=O)c1
    0.995, -0.158
COc1ccc(-c2noc(CCC(=O)N(C)c3ccccc3Cl)n2)cc1
    0.933, -0.957
CCOC(=O)c1c(-c2ccc(Cl)cc2)csc1NC(=O)CN1CC(C)OC(C)C1 (stereo not drawn)
    0.997, -0.066
CCOCCCNC(=O)c1cc(Nc2ccc(CC)cc2)nc2ccccc12
    0.914, -1.34
O=C(O)c1ccc2nc(-c3cccnc3)[nH]c2c1
    1.15, 1.95
Cc1cccc(C)c1NC(=O)c1cc(S(=O)(=O)N2CCOCC2)ccc1F
    0.994, -0.1
COC(=O)c1ccc(C(=O)Nc2ccc3nc(C4CCCCC4)[nH]c3c2)cc1
    0.899, -1.08
CCOC(=O)N1CCc2c(sc(NC(=O)c3cccc(F)c3)c2C(=O)Nc2ccc(OC)cc2)C1
    1.31, 2.92
O=C(NCCCN1CCCC1=O)[C@H](CSCc1ccccc1)N1Cc2ccccc2C1=O
    0.953, -1.06
CC1CCCN(CCCNC(=O)CN2C(=O)COc3ccc(S(=O)(=O)N4CCOCC4)cc32)C1 (stereo not drawn)
    0.997, -0.0931

The results go on:
The line under a structure holds: CBX7 AlphaScr, CBX7 AlphaScr z-score
Cc1c(Cc2ccccc2)sc(NC(=O)c2ccc(F)cc2)c1C(N)=O
    1.04, 0.0694
CCOc1ccc2nc(N3CCC(C(=O)NCCc4ccc(OCC)c(OCC)c4)CC3)sc2c1
    1.01, 0.563
CCC(C)NC(=O)CC1Oc2ccc(Cl)cc2NC1=O (stereo not drawn)
    1.01, 0.223
CCCOc1ccc(-c2nc(N3CCN(CC)CC3)c3ccccc3n2)cc1
    0.941, -0.0701
COCCN1Cc2cccc(C(=O)N3CCC(N4CCCCC4)CC3)c2C1=O
    0.953, -0.387
CCOC(=O)c1cnc2cc(C(F)(F)F)ccc2c1Nc1ccc2c(c1)OCCO2
    0.601, -6.9
COc1ccc(-n2c(Cc3cccn3C)nnc2SCC(=O)Nc2cccc(NC(C)=O)c2)cc1
    0.919, -1.93
Cc1cc(Br)ccc1OCC(=O)N(Cc1nc(-c2ccccc2)no1)C(C)C
    0.947, -0.991
O=C(NC1CCN(Cc2ccccc2)CC1)C1CCC(Cn2c(=O)[nH]c3ccsc3c2=O)CC1 (stereo not drawn)
    1.05, 0.244
